Assay outcomes: PubChem BioAssay, Center for Chemical Genomics, University of Michigan
HIV TAR-Tat = HIV-1 TAR-Tat binding disruption; HIV-1 TAR RNA, Tat peptide displacement FRET; hits give high values; z-score (no concentration beside the values); actives 0.6% (n = 100,000); AID 1259389;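 further: score is relative to mean and SD of negative controls; some compounds called inactive have numbers as strong as hits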
CDC25B-CDK2 inh = human CDC25B-CDK2/CyclinA binding inhibition; P30305+P24941; HTRF CDC25B-CDK2/CyclinA binding, anti-His/anti-Flag; hits give high values; z-score (test concentration not listed); actives 0.72% (n = 94,000);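 further: score is relative to mean and SD of negative controls; strong numbers were not always called active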
An asterisk follows results filed as active; x = not tested or not shown.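 How the source made its calls: active means z-score from 3 up in half or more of its runs; inactive means the rest.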

(1) CC1CCCN(C(=O)C2CCN(S(=O)(=O)c3ccc4c(c3)CC(C)N4C(=O)C3CC3)CC2)C1 (stereo not drawn)
(2) CCCCN1C(=O)c2c(NC(C)=O)c3cc(F)ccc3n2CC1(C)C(=O)NC1CCCC1 (stereo not drawn)
(3) Cc1ccccc1C(=O)N1N=C(c2cccc(NS(C)(=O)=O)c2)CC1c1cccs1 (stereo not drawn)
(4) Cc1nc2ccc(S(=O)(=O)NC(CC(C)C)C(=O)Nc3nccs3)cc2s1 (stereo not drawn)
(5) COc1ccc(Cl)cc1-n1c(=S)sc2c(=O)[nH]c(SCC(=O)N3CCCC3)nc21
Screen / compound no.	1	2	3	4	5
HIV TAR-Tat	0.15	-2.1	x	1.3	0.99
CDC25B-CDK2 inh	x	x	-1	0.74	-0.91

(6) COc1ccc(C(=O)CC2(O)C(=O)N(C(C)C)c3ccccc32)cc1OC (stereo not drawn)
(7) COC(=O)c1c(OC)ccc(NC(=O)CSc2nc(C)cc(C)n2)c1OC
(8) Cc1ccc(O)c(-c2n[nH]c3c2C(c2ccc(C(C)C)cc2)N(Cc2ccco2)C3=O)c1 (stereo not drawn)
(9) CCCS(=O)(=O)c1cnc(C)nc1N
(10) Fc1ccc(-n2cc(-c3ccccc3)c3c(NCCN4CCOCC4)ncnc32)cc1
Screen / compound no.	6	7	8	9	10
HIV TAR-Tat	-0.28	x	2	x	x
CDC25B-CDK2 inh	-2.1	0.02	1.1	-0.26	0.76

(11) COc1ccc(OC)c(NC(=O)CSc2nc(=O)n(CCN(C)C)c3c2CCC3)c1
(12) CCOC(=O)C(CC(=O)c1ccc(Cl)cc1)C(C)=O (stereo not drawn)
(13) c1ccc2nc(N3CCN(Cc4ccc5c(c4)OCO5)CC3)cnc2c1
(14) Cc1csc2nc(CNS(=O)(=O)c3ccc(F)cc3)cn12
(15) Cc1ccc(C2C(C#N)=C(N)OC3=C2C(=O)CC(C)(C)C3)cc1 (stereo not drawn)
Screen / compound no.	11	12	13	14	15
HIV TAR-Tat	2.3	x	0.59	2.2	x
CDC25B-CDK2 inh	x	-2	x	-0.57	-0.48

(16) CS(=O)(=O)NCC(c1ccco1)N1CCN(c2ccc(F)cc2)CC1 (stereo not drawn)
(17) C=CCNC(=O)c1cc(CCC)on1
(18) CC(C)CSc1ncnc2c1sc1nc(N3CCOCC3)c3c(c12)CC(C)(C)OC3
(19) Cc1cccc(NS(=O)(=O)c2ccc3nc(-c4ccccc4)[nH]c3c2)c1
(20) Cc1nc2c(c(SCC(=O)Nc3ccc(Br)cc3)n1)CCC2
Screen / compound no.	16	17	18	19	20
HIV TAR-Tat	1.1	0.01	x	x	0.01
CDC25B-CDK2 inh	x	-4.4	0.06	-1.8	-1.3

(21) COc1ccc(C2/C(=C(\O)c3ccc(C)cc3)C(=O)C(=O)N2CCN(C)C)cc1OC (stereo not drawn)
(22) c1ccc(CCc2nn3c(C4COc5ccccc5O4)nnc3s2)cc1 (stereo not drawn)
(23) O=S(=O)(Cc1ccccc1)c1nc2ccccc2[nH]1
(24) Brc1ccc(C2=CC(c3cccs3)n3ncnc3N2)cc1 (stereo not drawn)
(25) Cn1c(=O)c(Nc2ccccc2)c2c3c(cccc31)C(=O)c1ccccc1-2
Screen / compound no.	21	22	23	24	25
HIV TAR-Tat	1.4	2.2	1.6	0.39	-5.9
CDC25B-CDK2 inh	-1.1	-0.12	-0.99	-0.36	-0.57

(26) Cc1ncc(-c2ccc(C)c(S(=O)(=O)NCCc3ccccc3)c2)o1
(27) Cc1ccc(SCc2cc(=O)n3nc(C)sc3n2)cc1
(28) COc1ccc(N2CCN(Cc3nnc(-c4ccc5c(c4)OCO5)o3)CC2)cc1
(29) COCCCNc1nc2c(S(=O)(=O)c3ccccc3)nnn2c2ccc(Cl)cc12
(30) CCc1c(CN(Cc2ccccc2)C(C)C)csc1C
Screen / compound no.	26	27	28	29	30
HIV TAR-Tat	2.1	2.7	0.58	2	0.7
CDC25B-CDK2 inh	x	-2.5	0.41	-1.6	x

(31) COc1ccc2nonc2c1
(32) CCc1ccc(C2C(C#N)=C(C)NC3=C2C(=O)CC(C)(C)C3)cc1 (stereo not drawn)
(33) Cc1c(C(=O)NCC2CCCO2)oc2ccc3c(c12)C(=O)CC1(CCCCC1)O3 (stereo not drawn)
(34) CCOC(=O)CSc1nc2ccccc2[nH]1
(35) CSc1ccccc1-c1nnc(NC(=O)c2ccc3c(c2)OCCO3)o1
Screen / compound no.	31	32	33	34	35
HIV TAR-Tat	x	1	2.6	2.7	1.2
CDC25B-CDK2 inh	-0.05	-0.84	0.23	-0.3	x

Full records, quoted from the list. Screens in order: HIV TAR-Tat	CDC25B-CDK2 inh
`Cc1ccc(C2C(C#N)=C(N)OC3=C2C(=O)CC(C)(C)C3)cc1` (stereo not drawn) is listed with x	-0.48
`CCc1ccc(C2C(C#N)=C(C)NC3=C2C(=O)CC(C)(C)C3)cc1` (stereo not drawn) is listed with 1	-0.84

Additional structures:
(36) Cc1nc2nc(CNc3ccccc3)nn2c(C)c1Cl
(37) O=C(CCC1CCCC1)NCc1n[nH]c(=O)c2ccccc12
(38) COc1ccc(Oc2ccc([N+](=O)[O-])c3nonc23)cc1
(39) CC1=C(C#N)C(c2cccs2)C(C#N)=C(C)N1
(40) O=C(CN1C(=O)CSc2ccc(S(=O)(=O)N3CCCC3)cc21)NCCCN1CCCC1=O
Screen / compound no.	36	37	38	39	40
HIV TAR-Tat	1.2	0.44	x	x	1
CDC25B-CDK2 inh	1.3	x	12*	-2.1	x

(41) Cn1c(=O)c2cn(-c3ccccc3N)cc2n(C)c1=O
(42) COc1ccc(-c2nc3sccn3c2Nc2ccc(Cl)cc2)cc1
(43) O=C(Nc1ccccc1Cl)C1COc2ccccc2O1 (stereo not drawn)
(44) COc1ccccc1N1CCN(S(=O)(=O)c2c(C)nc3sc(C)cn3c2=O)CC1
(45) O=C(CSc1ccc2ccccc2n1)Nc1nsc(-c2ccccc2)n1
Screen / compound no.	41	42	43	44	45
HIV TAR-Tat	x	0.26	1.4	-1.1	1.4
CDC25B-CDK2 inh	-1.2	-0.5	0.12	x	-0.12

(46) Cc1nn(C)c(C)c1CNC(=O)NCc1ccco1
(47) Cc1ccc(-c2cc(Nc3cccc(C)c3)nc(C)n2)cc1
(48) COc1ccccc1C1CC(=O)C2=C(C1)NC(C)=C(C(=O)OC(C)C)C2c1coc2ccccc2c1=O (stereo not drawn)
(49) Cc1cc(CNC(=O)NCCC(C)C)c(C)n1-c1ccc(F)cc1
(50) CCN(CC)c1ccc(CNS(=O)(=O)c2ccc3c(c2)C(C)(C)C(=O)N3C)cc1
Screen / compound no.	46	47	48	49	50
HIV TAR-Tat	0.91	1.2	-0.45	0.94	0
CDC25B-CDK2 inh	x	0.92	-1.4	x	x

(51) CN(Cc1ccccc1)c1ccc2cc(S(=O)(=O)N3CCCCC3)ccc2n1
(52) O=C(c1noc2c1CCc1sccc1-2)N1CCN(C2CCCCC2)CC1
(53) CCc1ccc(C2C(C#N)=C(N)OC3=C2C(=O)CC(C)(C)C3)cc1 (stereo not drawn)
(54) O=C(CSc1nnc(-c2ccc(O)cc2)o1)c1ccc(Br)cc1
(55) O=C(N=S1CCN(c2sccc2[N+](=O)[O-])CC1)Nc1ccc(Cl)cc1Cl
Screen / compound no.	51	52	53	54	55
HIV TAR-Tat	1.5	-0.66	x	0.17	x
CDC25B-CDK2 inh	x	x	-0.13	1.7	0.56

(56) Cc1cc(-c2ccc(S(=O)(=O)N3CCc4ccccc43)o2)n[nH]1
(57) CCOC(=O)c1c(C)[nH]c(C)c1S(=O)(=O)N1CCc2ccccc2C1
(58) O=S(=O)(c1ccccc1)N1CCCC1c1ccco1 (stereo not drawn)
(59) Fc1ccc(-c2csc(-c3nc(-c4cccs4)cs3)n2)cc1
(60) COc1ccccc1/C=C/c1nc2ccccc2n1C
Screen / compound no.	56	57	58	59	60
HIV TAR-Tat	-1.2	0.42	0.59	-1	-0.88
CDC25B-CDK2 inh	x	x	-0.24	x	-0.31

(61) Cn1c(-c2cc(C(C)(C)C)nn2Cc2ccc(F)cc2)n[nH]c1=S
(62) COc1ccc(Nc2nc3ccccc3n3c(C)nnc23)cc1OC
(63) CC(C)C1N=C2c3ccccc3N=C(SCC(=O)Nc3cccc(Cl)c3)N2C1=O (stereo not drawn)
(64) CCc1cc2c3c([nH]c2cc1S(=O)(=O)Nc1ccc(-c2ccno2)cc1)CCCC3=O
(65) CCn1c(SCC(=O)N2CCC(C)CC2)nc2c(c1=O)SCC2
Screen / compound no.	61	62	63	64	65
HIV TAR-Tat	x	0.3	0.11	-0.45	1.1
CDC25B-CDK2 inh	-1.1	-1.8	x	x	-1.1

(66) Cc1ccc(S(=O)(=O)NCCN2CCNC2=O)cc1
(67) Cc1nc2sccn2c(=O)c1S(=O)(=O)Nc1ccc(Br)cn1
(68) CC(C)(C)C(=O)CSc1nc2ccccc2c(=O)n1C1CCCC1
(69) COCCCNc1nc2c(S(=O)(=O)c3ccc(Br)cc3)nnn2c2ccsc12
(70) CCSc1ncc2c(=O)n(CC(=O)N3CCCCC3)cnc2n1
Screen / compound no.	66	67	68	69	70
HIV TAR-Tat	x	3.1	x	-2.9	1.4
CDC25B-CDK2 inh	-0.23	x	0.03	x	x

(71) COC(=O)c1cc(C2CC2)nc2c1c(C)nn2-c1ccccc1
(72) O=C(CN1C(=O)c2cccnc2Oc2ccc(Cl)cc21)Nc1cc(F)ccc1F
(73) O=C(CCC1CCCC1)Nc1nnc(SCc2nnc(-c3ccccc3)o2)s1
(74) CCOc1ccc(-c2nc(C(N)=O)c3[nH]c(=O)n(CC4CCCO4)c3n2)cc1 (stereo not drawn)
(75) Cc1c(C(=O)N2CCC(C)CC2)c(S(=O)(=O)NCc2ccco2)c(C)n1C
Screen / compound no.	71	72	73	74	75
HIV TAR-Tat	1.7	0.1	1.5	1.5	1.2
CDC25B-CDK2 inh	x	x	x	x	x

(76) CCOC(=O)C12C(=O)OC(C)(C)C1C2(CC)C(=O)c1ccc(C)cc1 (stereo not drawn)
(77) Cc1ccc(S(=O)(=O)N(C)c2c(C)ccc(S(=O)(=O)N3CCOCC3)c2C)cc1
(78) COC(=O)c1cnn(-c2ccc(F)cc2F)c1/C=N/OC(=O)Nc1ccc(Cl)cc1
(79) Nc1nc(N2CCCC2)ncc1S(=O)(=O)c1ccc(C(F)(F)F)cn1
(80) O=C1c2cccnc2C(=O)N1CCc1ccc(S(=O)(=O)Nc2cccnc2)cc1
Screen / compound no.	76	77	78	79	80
HIV TAR-Tat	x	x	x	x	-0.76
CDC25B-CDK2 inh	-0.04	-0.27	-1.3	-1.3	x

(81) Cc1ccsc1CCNC(=O)CCc1c(C)nc2nc[nH]n2c1=O
(82) Cc1ccc(C2N=NNC2=S)c(C)c1 (stereo not drawn)
(83) O=C1CC(c2ccc(Cl)cc2)c2cc3c(cc2N1)OCO3 (stereo not drawn)
(84) C=CCn1c(Cc2csc(N)n2)nnc1SCC(=O)OCC
(85) Cc1cc(C)c(-c2c(Nc3ccccc3)c(=O)c2=O)cc1C
Screen / compound no.	81	82	83	84	85
HIV TAR-Tat	0.13	x	0.56	-0.04	0.51
CDC25B-CDK2 inh	-2.9	-1.1	-0.94	-1.2	x

A different layout for part of the listing above.
Below each compound: HIV TAR-Tat | CDC25B-CDK2 inh
#81 Cc1ccsc1CCNC(=O)CCc1c(C)nc2nc[nH]n2c1=O
    0.13 | -2.9
#82 Cc1ccc(C2N=NNC2=S)c(C)c1 (stereo not drawn)
    x | -1.1
#83 O=C1CC(c2ccc(Cl)cc2)c2cc3c(cc2N1)OCO3 (stereo not drawn)
    0.56 | -0.94
#84 C=CCn1c(Cc2csc(N)n2)nnc1SCC(=O)OCC
    -0.04 | -1.2
#85 Cc1cc(C)c(-c2c(Nc3ccccc3)c(=O)c2=O)cc1C
    0.51 | x

(cont.)
(86) C#C[C@]1(O)CCC2C3CCC4=C(CCC(=O)C4)C3CC[C@@]21C (stereo partly drawn)
(87) C=CC[n+]1cccc(-c2cc(-c3ccc(Br)cc3)c3c(ccc4ccccc43)n2)c1
(88) CCOC(=O)c1c(NC(=O)c2snnc2C)sc2c1CCC2
(89) COc1ccc(CNc2ncnc3scc(-c4ccc(Cl)cc4)c23)c(OC)c1
(90) CCOC(=O)c1c(C)oc2nc(C)nc(Nc3cc(OC)cc(OC)c3)c12
Screen / compound no.	86	87	88	89	90
HIV TAR-Tat	1.8	x	-0.92	0.23	-0.05
CDC25B-CDK2 inh	x	1.8	-1.5	x	x

(91) CCc1nc(-c2csc(S(=O)(=O)N3CCC(C(=O)N(C)C4CCCCC4)CC3)c2)no1
(92) O=C(N=Nc1c(O)n(CN2CCOCC2)c2ccc(Br)cc12)c1ccncc1
(93) COC(=O)c1ccccc1NC(=O)C1=CC(c2ccc3c(c2)OCO3)=NS(=O)(=O)N1C
(94) Cc1ccc(-c2nc3sc(CCNS(=O)(=O)c4ccc5c(c4)OCCO5)c(C)n3n2)cc1
(95) COC(=O)c1ccc(C2C3=C(CCCC3=O)NC3=C2C(=O)c2ccccc23)cc1 (stereo not drawn)
Screen / compound no.	91	92	93	94	95
HIV TAR-Tat	1.4	x	-9.9	0.64	0.32
CDC25B-CDK2 inh	x	-2.5	-0.95	x	-0.91

(96) CCOc1ccc(C2c3c(oc4ccc(C)cc4c3=O)C(=O)N2c2nc(C)c(C)s2)cc1OC (stereo not drawn)
(97) O=C(Nc1ccc2c(c1)C(=O)OC2)NC1CCCCC1
(98) CC1=C(c2ccc(C)c(C)c2)S(=O)(=O)N(Cc2ccc(C(=O)NCCN3CCCC3)cc2)C1=O
(99) Cc1c(C(=O)N2CCC(C)CC2)sc2nc3n(c(=O)c12)CCCCC3
Screen / compound no.	96	97	98	99
HIV TAR-Tat	-0.72	0.68	0.53	0.63
CDC25B-CDK2 inh	-0.28	-1.5	x	x
